AF4-AF9 inh – blocks AF4 peptide binding to human AF9. inhibition, % at 10 µM. AID 651704. AlphaScreen, biotin-AF4 peptide binding to FLAG-AF9. P42568. 0.47% of 350,000 active;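 active = every replicate reaching a set inhibition limit, whatever the replicate mean, cut at about 25% in these data; inconclusive = mean inhibition reaches that limit but some replicates miss it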;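 also: 0% = plate neutral control median and 100% = total signal loss; the record names both 10 and 1 µM as test concentration; the first replicate is given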
Target sequence (P42568 whole entry, looked up): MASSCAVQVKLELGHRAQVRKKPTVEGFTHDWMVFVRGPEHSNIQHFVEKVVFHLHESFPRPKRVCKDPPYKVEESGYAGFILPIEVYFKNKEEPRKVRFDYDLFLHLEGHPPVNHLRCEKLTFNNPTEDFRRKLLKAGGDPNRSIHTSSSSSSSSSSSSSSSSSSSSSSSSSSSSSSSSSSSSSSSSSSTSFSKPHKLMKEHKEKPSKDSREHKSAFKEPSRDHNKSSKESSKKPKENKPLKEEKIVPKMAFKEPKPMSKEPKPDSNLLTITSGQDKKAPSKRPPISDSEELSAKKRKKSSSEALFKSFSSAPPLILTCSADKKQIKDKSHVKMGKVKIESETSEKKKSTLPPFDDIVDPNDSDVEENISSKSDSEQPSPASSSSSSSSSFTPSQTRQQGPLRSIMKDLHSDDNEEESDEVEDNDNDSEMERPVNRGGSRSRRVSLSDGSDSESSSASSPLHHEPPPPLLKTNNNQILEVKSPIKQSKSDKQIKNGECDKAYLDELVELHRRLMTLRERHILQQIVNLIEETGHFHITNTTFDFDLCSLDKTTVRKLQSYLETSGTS
HNF4A DNA FP – change in binding of human HNF4 alpha to DNA; P41235; HNF4a-FITC DNA binding, fluorescence polarization, 1 h; activity change, % at 10 µM; 0.3% of 360,000 active; in the data active = activity change above about 30%, passing the limit was not always enough;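 also: controls were the assay level and a saturating level of protein; the project sought stronger binding though the title names inhibitors; some compounds called inactive have numbers as strong as hits; positive values seem to mean higher polarization but the record does not say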
Target sequence (P41235 whole entry, looked up): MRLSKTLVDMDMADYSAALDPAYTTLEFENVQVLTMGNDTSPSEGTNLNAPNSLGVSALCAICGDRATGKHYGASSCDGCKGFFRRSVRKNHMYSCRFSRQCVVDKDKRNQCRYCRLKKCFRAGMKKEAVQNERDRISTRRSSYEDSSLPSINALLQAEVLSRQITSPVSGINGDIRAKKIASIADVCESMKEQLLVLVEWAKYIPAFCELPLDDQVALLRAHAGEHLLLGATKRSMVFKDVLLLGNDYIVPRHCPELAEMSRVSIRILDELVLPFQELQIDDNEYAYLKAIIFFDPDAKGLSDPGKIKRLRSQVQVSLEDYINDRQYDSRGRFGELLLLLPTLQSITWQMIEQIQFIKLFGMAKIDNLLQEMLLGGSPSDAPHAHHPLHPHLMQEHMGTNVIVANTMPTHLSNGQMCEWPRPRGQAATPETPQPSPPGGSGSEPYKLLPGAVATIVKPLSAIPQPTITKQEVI
E coli growth – inhibitors of Escherichia coli growth | 0.21% of 330,000 active | OD600 absorbance (test concentration not listed) | AID 1053175 | OD600, 23 h; active compounds read low;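 active = OD600 absorbance below the run mean of sample wells minus 3.6 SD, in any replicate, cut at about 0.56 in these data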;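 also: stock transfer was 300 nL into about 60 µL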
Vif TR-FRET – HIV-1 Vif–A3G interaction blockers – biochemical, TR-FRET, GST-Vif 1-94, biotin-A3G peptide, dose response retest, primary screen (AID 1117319). one-dose inhibition, %; IC50 in µM for titrated hits. 0.57% of 260,000 active. TR-FRET GST-Vif / biotin-A3G peptide binding; higher % means a stronger effect; test concentration not given here; strong numbers were not always called active;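 active = above the screen mean plus three standard deviations and confirmed in dose response; inconclusive = results disagree or hit not tested in dose response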;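 also: Vif residues 1-94 fused to GST binding biotinylated APOBEC3G peptide 110-148; 0% = full assay without inhibitor and 100% = GST in place of GST-Vif; retest series ran down from 100 µM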
Ecoli rRNA inh – inhibits bacterial ribosomal RNA function over humanized ribosomes; E. coli WT GFP vs humanized-ribosome RFP mutants, fluorescence, 24 h; active compounds read low; DMSO median 0, no signal -100; GFP signal change (wild-type ribosome), % (test concentration not listed); 1.6% of 350,000 active;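 active = significant combined selectivity score with lowered wild-type GFP, culture density cut under 30%, mutant RFP and density less affected; inactive = any of these conditions unmet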; also: one replicate is shown; some compounds called inactive have numbers as strong as hits
ALR H2O2 inh – blocks human ALR sulfhydryl oxidase activity. purified ALR, DTT oxidation, H2O2 HRP-luminol luminescence. P55789. inhibition, % (no concentration beside the values). 3.8% of 290,000 active;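 active = mean and each replicate at 75% or more; inconclusive = only one of the two met; inactive = neither met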;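 also: stock transfer was 7.5 nL into about 7.5 µL; 0% = neutral wells and 100% = wells with inactivated enzyme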
FGF22 binding – binders of recombinant human FGF22 by thermal shift; Q9HCT0; SYPRO orange fluorescence; percent of sucrose octasulfate shift, DMSO zero; calls only at 9.99 µM; 1.5% of 340,000 active;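 active = melting point raised past a set limit in the mean and every replicate; inconclusive = no clear call; three in four hits are not shown here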
Ecoli rRNA inh OD600 – also measured in Ecoli rRNA inh; calls as there; OD600 change, %; measured here: OD600 growth;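 optical density of the mix in the first replicate; 0 = DMSO median and -100 = no signal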
Ecoli rRNA inh RFP – also measured in Ecoli rRNA inh; calls as there; RFP signal change, %; measured here: RFP humanized mutant strains;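 first replicate; 0 = DMSO median and -100 = no signal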
* = called active by the depositor; i = inactive; ? = inconclusive; · = no result given; & = joins results of further samples. This is a subset. The share of hits here may be higher or lower than overall.

AF4-AF9 inh	HNF4A DNA FP	E coli growth	Vif TR-FRET	Ecoli rRNA inh	Ecoli rRNA inh OD600	Ecoli rRNA inh RFP	ALR H2O2 inh	FGF22 binding	smiles
-6.2	0.7	0.64	·	17	15	2.9	-2	i	COc1cc(C(=S)N2CCCC2)ccc1OCC(N)=O
-2.3	-21	0.67	?	8	5	0.8	-22	i	CC(=O)Nc1ccc2nc3c(=O)n(C)c(=O)n(C)c3nc2c1
·	2.4	0.71	-2%	·	·	·	·	·	CCc1nc(C)ccc1OCC(=O)O
-0.6	2.6	0.67	·	9	7	-0.7	6	i	Cc1ccc(S(=O)(=O)N[C@@H](Cc2ccccc2)C(=O)N2CCC(C(=O)N[C@@H](CCC(N)=O)C(=O)O)CC2)cc1
-25	0.5	0.67	1%	-25	-37	-2.6	·	i	COc1cc(C(=O)NCCCN2CCCC2=O)ccc1OCc1ccc(Cl)cc1Cl
·	-4.1	0.68	-2%	·	·	·	1	·	O=C(O)c1sccc1S(=O)(=O)c1ccccc1
-2.1	1.2	0.63	-1%	1	1	0.1	-1	i	O=C(O)c1cccnc1SC1CC(=O)N(c2ccc(OC(F)F)cc2)C1=O (configuration not stated)
-74	0.8	0.71	-2%	2	2	-8.5	-10	i	O=C(NCc1ccco1)C1CCCN(S(=O)(=O)c2ccccc2)C1 (configuration not stated)
6.2	17	0.69	·	10	9	21	2	i	COc1ccc(-n2nc(C(=O)NCC(=O)NCCCN3CCCCCC3)c3ccccc3c2=O)cc1Cl
-3.0	2.6	0.64	·	-24	-22	0.3	-6	i	COc1cccc(C(=O)Nc2ccc3ccccc3c2)c1
-0.7	5.2	0.66	0%	2	3	-3.2	-5	i	COc1cccc(NC(=O)COc2cccnc2[N+](=O)[O-])c1
9.6	2.0	0.65	4%	10	18	3.8	7	i	Nn1nnc2ccccc21
-1.8	4.4	0.62	-2%	5	1	0.5	·	i	O=C(CCSCCC(=O)NN=Cc1ccccc1O)NN=Cc1ccccc1O
2.7	2.7	0.68	27%	-5	3	0.4	-3	i	C=CCSc1nnc(-c2cc(C(C)(C)C)nn2Cc2ccc(F)cc2)n1C
-1.9	-4.0	0.67	3%	17	4	1.4	-6	i	CCOCCCNC(=S)N1CCN(CC)CC1
6.5	3.5	·	·	3	-7	3.7	·	i	CCc1nc2ccc(C(=O)N(C)Cc3ccco3)cn2c1N(C)Cc1ccc(OC)cc1
1.0	-0.7	0.66	·	13	12	0.9	-16	i	O=C(CCc1nnc(C2CCCCC2)o1)N1CCN(C2CCCCC2)CC1
·	-4.1	0.74	11%	·	·	·	-3	·	O=C(COC(=O)CC12CC3CC(CC(C3)C1)C2)Nc1ncc(Cl)cc1Cl
-0.2	0.6	0.72	·	18	26	0.5	3	i	COc1ccc(S(=O)(=O)N2CCCCC2)cc1NC(=O)c1cncc(Br)c1
-2.2	·	·	·	2	3	-2.7	·	i	COc1ccc(S(=O)(=O)Nc2ccc3c(c2)C(=O)N([C@@H](C)CO)C[C@H](C)[C@H](CN(C)C(=O)Nc2c(C)noc2C)O3)cc1

A draw from above in order of formula weight, ascending.
AF4-AF9 inh	HNF4A DNA FP	E coli growth	Vif TR-FRET	Ecoli rRNA inh	Ecoli rRNA inh OD600	Ecoli rRNA inh RFP	ALR H2O2 inh	FGF22 binding	smiles
-74	0.8	0.71	-2%	2	2	-8.5	-10	i	O=C(NCc1ccco1)C1CCCN(S(=O)(=O)c2ccccc2)C1 (configuration not stated)
1.0	-0.7	0.66	·	13	12	0.9	-16	i	O=C(CCc1nnc(C2CCCCC2)o1)N1CCN(C2CCCCC2)CC1
-0.2	0.6	0.72	·	18	26	0.5	3	i	COc1ccc(S(=O)(=O)N2CCCCC2)cc1NC(=O)c1cncc(Br)c1

New compounds follow:
AF4-AF9 inh	HNF4A DNA FP	E coli growth	Vif TR-FRET	Ecoli rRNA inh	Ecoli rRNA inh OD600	Ecoli rRNA inh RFP	ALR H2O2 inh	FGF22 binding	smiles
·	1.2	0.67	27%	·	·	·	10	·	CCOC(=O)c1ccc2[nH]cc(C(C)=O)c(=O)c2c1
-8.2	·	·	·	-1	-7	1.1	·	i	C[C@H]1CN([C@@H](C)CO)S(=O)(=O)c2ccc(C#Cc3ccccc3F)cc2O[C@@H]1CN(C)C(=O)Cc1ccccc1
1.0	0.7	0.71	-2%	4	10	-0.2	-2	i	Cc1c(Cl)ccc(S(=O)(=O)Nc2cccnc2)c1Cl
-7.6	0.3	0.71	-2%	·	·	·	·	i	CC[C@]12c3[nH]c4ccccc4c3CCN1C(=O)C(CC(=O)NCCCOC)C[C@@H]2C(=O)N1CCN(C(=O)C2CC2)CC1 (some centres not stated)
·	-3.7	0.67	-4%	·	·	·	-20	·	COc1ccccc1Nc1ncnc2ccccc12
4.3	3.6	0.68	-4%	-8	-13	-2.4	2	i	O=S(=O)(NC1CCCCC1N1CCN(c2ccccc2F)CC1)c1ccc(Cl)cc1 (configuration not stated)
1.1	4.7	0.69	?	14	-2	-1.4	-10	i	O=c1[nH]c2ccccc2nc1-c1ccc(Cl)cc1
2.4	5.1	0.7	-6%	7	3	1.9	-10	i	O=C(CSc1ccc(-c2ccccn2)nn1)Nc1nccs1
-3.5	·	·	·	1	3	-4.2	·	i	C[C@@H]1CN([C@H](C)CO)C(=O)c2cc(C#CC3(O)CCCC3)cnc2O[C@H]1CN(C)C(=O)C1CCOCC1
·	-3.0	0.67	8%	·	·	·	-20	·	CC(=O)c1cccc(NC(=O)CCS(=O)(=O)c2cccc3nsnc23)c1
-1.5	-3.6	0.68	-4%	-18	-32	-7.6	-14	i	O=C(Cn1c(=O)oc2ccccc21)Nc1ccc(Br)cc1
0.7	19	0.67	-4%	-6	2	-2.8	-10	i	CCC(=O)Nc1cccc(-c2ccc(N3CCC(C)CC3)nn2)c1
-0.1	-2.2	0.67	·	-2	9	-1.5	33	i	C=CCn1c(CNS(=O)(=O)c2ccc(F)cc2)n[nH]c1=S
-4.9	2.7	0.73	·	-1	-9	-0.8	3	i	Cc1cc(C)cc(N(CC(=O)Nc2cccc(C)c2C)S(=O)(=O)c2c(C)[nH]c(=O)[nH]c2=O)c1
·	-0.9	0.65	-4%	·	·	·	3	·	CC(C)Sc1nc(O)c(Cc2ccccc2)c(=O)[nH]1
·	-26	·	1%	·	·	·	2	·	NS(=O)(=O)c1ccc(NS(=O)(=O)c2ccc(NC(=O)c3ccc(-c4ccccc4)cc3)cc2)cc1
1.0	0.0	0.71	-2%	8	-3	-0.5	-3	i	CC(=O)NC(CC(=O)NC(C)c1ccc(Cl)cc1Cl)c1ccccc1 (configuration not stated)
23	·	·	·	0	2	0.5	·	i	C[C@@H]1CN([C@@H](C)CO)C(=O)CCCn2cc(nn2)CO[C@@H]1CN(C)C(=O)Nc1ccc(N2CCCCC2)cc1
3.8	-2.3	0.7	-9%	8	18	1.5	0	i	Cc1ccc(C)c(C(C)NC(=O)C2CCCO2)c1 (configuration not stated)
5.4	·	·	·	-3	-5	1.4	·	i	C[C@H]1CCCCO[C@H](CN(C)C(=O)C2CCCCC2)[C@@H](C)CN([C@@H](C)CO)C(=O)c2cc(NS(=O)(=O)c3ccc(Cl)cc3)ccc2O1

Reprinted at random: 4 entries already listed
AF4-AF9 inh	HNF4A DNA FP	E coli growth	Vif TR-FRET	Ecoli rRNA inh	Ecoli rRNA inh OD600	Ecoli rRNA inh RFP	ALR H2O2 inh	FGF22 binding	smiles
1.1	4.7	0.69	?	14	-2	-1.4	-10	i	O=c1[nH]c2ccccc2nc1-c1ccc(Cl)cc1
1.0	0.0	0.71	-2%	8	-3	-0.5	-3	i	CC(=O)NC(CC(=O)NC(C)c1ccc(Cl)cc1Cl)c1ccccc1 (configuration not stated)
23	·	·	·	0	2	0.5	·	i	C[C@@H]1CN([C@@H](C)CO)C(=O)CCCn2cc(nn2)CO[C@@H]1CN(C)C(=O)Nc1ccc(N2CCCCC2)cc1
-7.6	0.3	0.71	-2%	·	·	·	·	i	CC[C@]12c3[nH]c4ccccc4c3CCN1C(=O)C(CC(=O)NCCCOC)C[C@@H]2C(=O)N1CCN(C(=O)C2CC2)CC1 (some centres not stated)

The listing continues.
AF4-AF9 inh	HNF4A DNA FP	E coli growth	Vif TR-FRET	Ecoli rRNA inh	Ecoli rRNA inh OD600	Ecoli rRNA inh RFP	ALR H2O2 inh	FGF22 binding	smiles
·	1.4	0.67	1%&-7%	·	·	·	-4	·	CCOc1ccc(-c2cc(CCCC(=O)NCCCOC)no2)cc1
-3.4	-0.2	0.68	-7%	7	-1	-2.6	3	i	CCOC(=O)C1=C(O)C(=O)N(c2ccc(S(N)(=O)=O)cc2)C1c1ccc(Br)cc1 (configuration not stated)
0.1	-4.7	0.71	3%	13	8	0.2	0	i	O=C(CCCn1nnnc1CN1CCOCC1)N1CCC(c2ccc(F)cc2)C1 (configuration not stated)
·	0.4	0.68	4%	·	·	·	-24	·	Cc1nc(NC(C)C(=O)O)c2nc(C)oc2n1 (configuration not stated)
1.4	3.4	0.65	·	-28*	-14*	-1.1*	6	i	CC(=O)c1ccc(NC(=O)Nc2ccc(S(=O)(=O)N3CCCC3)cc2)cc1
·	0.0	0.68	11%	·	·	·	-15	·	CCc1ccc(C2C(C(=O)O)c3ccccc3C(=O)N2C)cc1 (configuration not stated)
·	-0.5	·	3%	·	·	·	-1	·	Cc1snc(S(=O)(=O)/C(C#N)=N\Nc2ccccc2)c1C#N
·	2.6	·	-5%	·	·	·	-10	·	CN1C/C(=N\S(=O)(=O)c2ccccc2)N(C)C1=O
-0.7	-0.4	0.67	·	10	12	3.1	-3	i	Cc1ccc(CC(=O)Nc2cc(C)ccn2)cc1
-1.0	-1.1	0.66	4%	22	20	4.4	-5	i	Cc1ccc(CN(CC(=O)NC(C)(C)C)C(=O)CNC(=O)c2cccs2)cc1
·	5.1	0.69	9%	·	·	·	-20	·	CCOC(=O)N1CCN(C(=O)CNS(=O)(=O)c2cccs2)CC1
0.4	-1.4	0.68	-12%	-6	4	-2.1	-12	i	CCOc1ccc(OCCOC(=O)CNC(=O)c2ccc(Cl)cc2Cl)cc1
·	-2.0	0.64	-9%	·	·	·	·	·	O=C(c1ccco1)N1CCN(CCCCOc2ccc(F)cc2)CC1
-7.4	1.4	0.73	-14%	-7	10	1.9	·	i	O=C(c1ccccc1)c1ccc2nc(Nc3ccccc3)c3nncn3c2c1
-0.4	4.9	0.67	4%	-17	-22	-3.5	7	i	O=C1c2ccccc2C(=O)N1CCc1c[nH]c2ccc(O)cc12
·	-0.1	0.67	4%	·	·	·	0	·	Cn1c(SCC(=O)N2CCOCC2)nnc1-c1ccccc1

Assay outcomes: PubChem BioAssay, several laboratories
